Screens deposited in PubChem by Broad Institute.
NOMO-1 viab: NOMO-1 AML cell viability reduction, primary screen, STK33 inhibitor project, CellTiter-Glo luminescence. NOMO-1 AML viability, 72 h. 7.5% of 37,000 active. inhibition, % (test concentration not listed);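 active = most replicates above 80%; inconclusive = exactly half above 80%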;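 note: wells of about 30 µL received 25 nL stock; 0% = median of vehicle wells and 100% = reference inhibitor level; the first replicate is given; inactives centre near 10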
Active calls of the source: *; ? = inconclusive. Only part of the results is shown; count on the stated rates, not on these rows.

SMILES	NOMO-1 viab
C[C@@H]1CN([C@H](C)CO)C(=O)Cc2cc(NS(=O)(=O)c3ccc(F)cc3)ccc2O[C@@H]1CN(C)S(=O)(=O)c1cn(C)cn1	3
C[C@H]1CN([C@@H](C)CO)C(=O)c2cc(NC(=O)Nc3cccc4ccccc34)ccc2O[C@H]1CN(C)Cc1ccc(C(=O)O)cc1	-12
COc1ccc(S(=O)(=O)N(C)C[C@H]2Oc3c(NC(=O)Nc4ccccc4)cccc3C(=O)N([C@@H](C)CO)C[C@@H]2C)cc1	-12
C[C@@H]1CN([C@@H](C)CO)C(=O)c2cccc(NC(=O)CCCCCC(=O)Nc3ccccc3N)c2O[C@H]1CN(C)C(=O)Nc1cccc2ccccc12	11
COc1ccc(OC)c(NC(=O)COc2ccc(F)cc2)c1	5
COc1ccc(OC)c(S(=O)(=O)Nc2cc([N+](=O)[O-])ccc2C)c1	16
COc1ccc(OC)c(S(=O)(=O)N2CCC(C(=O)Nc3cccc(SC)c3)CC2)c1	25
C[C@@H]1CN([C@H](C)CO)C(=O)c2cc(NS(=O)(=O)c3ccc(F)cc3)ccc2O[C@H]1CN(C)C(=O)Nc1ccc2c(c1)OCO2	-17
O=C(CSc1nc(-c2ccccc2)cc(=O)[nH]1)Nc1ccc(Br)cc1	-2
COc1ccc(S(=O)(=O)N(C)C[C@@H]2Oc3ccc(NC(=O)Nc4cccc5ccccc45)cc3CC(=O)N([C@H](C)CO)C[C@H]2C)cc1	12
CC(C)NC(=O)Nc1ccc2c(c1)C(=O)N([C@H](C)CO)C[C@@H](C)[C@H](CN(C)Cc1ccc(C(F)(F)F)cc1)O2	9
C[C@H](CO)N1C[C@H](C)[C@H](CN(C)S(=O)(=O)c2cn(C)cn2)Oc2ccc(NC(=O)CCN3CCOCC3)cc2CC1=O	-2
COc1ccc(OC)c(S(=O)(=O)N2CCC(C(=O)Nc3cccc(C(C)=O)c3)CC2)c1	31
C[C@@H]1CN([C@@H](C)CO)C(=O)Cc2cc(NS(=O)(=O)c3cn(C)cn3)ccc2O[C@@H]1CN(C)Cc1ccc(C(=O)O)cc1	11
C[C@H]1CN([C@@H](C)CO)C(=O)Cc2cc(NC(=O)Cc3cn(C)c4ccccc34)ccc2O[C@@H]1CN(C)CC1CCCCC1	51
Cc1noc(C)c1NC(=O)N(C)C[C@@H]1Oc2ccc(NC(=O)Cn3cnnn3)cc2C(=O)N([C@@H](C)CO)C[C@@H]1C	4
C[C@@H]1CN([C@@H](C)CO)C(=O)c2cc(NS(C)(=O)=O)ccc2O[C@H]1CN(C)Cc1ccc(-c2ccccc2)cc1	13
Fc1ccccc1CSc1nnc(-c2cccnc2)n1Cc1ccco1	5
C[C@H](CO)N1C[C@H](C)[C@@H](CN(C)S(=O)(=O)c2ccccc2)Oc2c(NS(=O)(=O)c3ccc(F)cc3)cccc2C1=O	-6
Cn1c(=O)c2c(ncn2CC(=O)N2CCN(C(=O)c3ccco3)CC2)n(C)c1=O	-6
COc1cccc(NC(=O)CNC(=O)c2ccc([N+](=O)[O-])cc2)c1	3
Cc1ccc(CC2C(=O)N(c3cccc(C(F)(F)F)c3)C(=O)C2C)cc1 (stereo unspecified)	55
Cc1ccc(O)c(NC(=O)CCN2C(=O)c3ccccc3C2=O)c1	8
C[C@@H]1CN([C@H](C)CO)C(=O)c2cccc(NC(=O)c3cnccn3)c2O[C@@H]1CN(C)Cc1ccc(C(=O)Nc2ccccc2N)cc1	126*
CC(=O)O[C@@H]1CC2C(C)(C)C(=O)C=C[C@]2(C)C2CC[C@@]3(C)[C@H](c4ccoc4)OC(=O)[C@H]4O[C@]43[C@@]21C (stereo partly specified)	58

Next part.
SMILES	NOMO-1 viab
O=C(CSc1n[nH]c(-c2ccc(Cl)cc2)n1)Nc1cccc(F)c1	-4
C[C@@H]1CN([C@@H](C)CO)C(=O)c2cccc(NC(=O)Nc3ccccc3)c2O[C@@H]1CN(C)C(=O)Nc1ccc(C(F)(F)F)cc1	68
C[C@H](CO)N1C[C@H](C)[C@@H](CN(C)C(=O)Nc2ccc3c(c2)OCO3)Oc2c(NS(=O)(=O)c3ccc(Cl)cc3)cccc2C1=O	-2
COc1cc(C)c(Cl)c(C)c1S(=O)(=O)NC1CC(C)(C)NC(C)(C)C1	0
C[C@@H]1CN([C@H](C)CO)C(=O)c2cc(NS(C)(=O)=O)ccc2O[C@@H]1CN(C)S(=O)(=O)c1cn(C)cn1	20
C[C@H]1CN([C@@H](C)CO)C(=O)Cc2cc(NC(=O)Cc3cn(C)c4ccccc34)ccc2O[C@@H]1CN(C)C(=O)Nc1ccc2c(c1)OCO2	2
C[C@@H]1CN([C@H](C)CO)C(=O)Cc2cc(NC(=O)Nc3ccccc3)ccc2O[C@H]1CN(C)Cc1ccc(Oc2ccccc2)cc1	72
Cc1nc(SCC(=O)NCC2CCCO2)c2c3c(sc2n1)CCC3 (stereo unspecified)	25
COc1ccc(CN(C)C[C@H]2Oc3ccc(NC(=O)Nc4ccc5c(c4)OCO5)cc3C(=O)N([C@H](C)CO)C[C@H]2C)cc1	14
Cc1ccc(NC(=O)CSc2n[nH]c(-c3ccncc3)n2)cc1	-8
Cc1ccnc(NC(c2cccc(Br)c2)c2ccc3ccc(C)nc3c2O)c1 (stereo unspecified)	126*
CNC[C@H]1Oc2ccc(NC(=O)C3CC3)cc2CC(=O)N([C@@H](C)CO)C[C@H]1C	6
Cc1ccc(C)c(OCC(=O)Nc2cccc(-c3nnc(-c4ccco4)o3)c2)c1	76
C[C@H]1CN([C@@H](C)CO)C(=O)Cc2cc(NC(=O)Nc3ccccc3)ccc2O[C@@H]1CN(C)S(=O)(=O)c1ccc(F)cc1	1
C[C@@H]1CCCCO[C@H](CN(C)C(=O)c2ccncc2)[C@@H](C)CN([C@H](C)CO)C(=O)c2cc(NC(=O)Cc3ccccc3)ccc2O1	20
Cc1ccc(S(=O)(=O)Nc2ccc3c(c2)CC(=O)N([C@@H](C)CO)C[C@@H](C)[C@@H](CN(C)Cc2ccc(Cl)c(Cl)c2)O3)cc1	83*
COc1ccc(S(=O)(=O)N(C)CC(=O)Nc2ccccc2Cl)cc1	2
C[C@H]1CN([C@@H](C)CO)C(=O)c2cc(NC(=O)c3ccncc3)ccc2O[C@@H]1CN(C)Cc1ccc(Oc2ccccc2)cc1	40
COc1ccc(S(=O)(=O)N(C)C[C@H]2Oc3ccc(NS(=O)(=O)c4cccs4)cc3CC(=O)N([C@@H](C)CO)C[C@@H]2C)cc1	24
COc1cccc(N(CC(=O)O)S(=O)(=O)c2ccccc2)c1	3
C[C@H]1CN([C@@H](C)CO)C(=O)c2cc(NC(=O)c3ccncc3)ccc2O[C@@H]1CN(C)Cc1ccc2c(c1)OCO2	14
C[C@@H]1CN([C@H](C)CO)C(=O)Cc2cc(NC(=O)Nc3ccc(C(F)(F)F)cc3)ccc2O[C@H]1CN(C)Cc1ccccc1	65
Cc1ncc([N+](=O)[O-])n1CC(=O)Nc1ccc(F)cc1	21
C[C@@H]1CN([C@@H](C)CO)C(=O)c2cc(NC(=O)Cc3ccccc3)ccc2O[C@@H]1CN(C)C(=O)Nc1cccc2ccccc12	64
C[C@@H]1CN([C@H](C)CO)C(=O)c2cccc(NC(=O)C3CCCCC3)c2O[C@H]1CN(C)Cc1ccc(C(F)(F)F)cc1	104*

Exported with bars between the fields: entries from further up
molecule | NOMO-1 viab
C[C@@H]1CCCCO[C@H](CN(C)C(=O)c2ccncc2)[C@@H](C)CN([C@H](C)CO)C(=O)c2cc(NC(=O)Cc3ccccc3)ccc2O1 | 20
Cc1ccc(S(=O)(=O)Nc2ccc3c(c2)CC(=O)N([C@@H](C)CO)C[C@@H](C)[C@@H](CN(C)Cc2ccc(Cl)c(Cl)c2)O3)cc1 | 83*
COc1ccc(S(=O)(=O)N(C)CC(=O)Nc2ccccc2Cl)cc1 | 2
C[C@H]1CN([C@@H](C)CO)C(=O)c2cc(NC(=O)c3ccncc3)ccc2O[C@@H]1CN(C)Cc1ccc(Oc2ccccc2)cc1 | 40
COc1ccc(S(=O)(=O)N(C)C[C@H]2Oc3ccc(NS(=O)(=O)c4cccs4)cc3CC(=O)N([C@@H](C)CO)C[C@@H]2C)cc1 | 24
COc1cccc(N(CC(=O)O)S(=O)(=O)c2ccccc2)c1 | 3
C[C@H]1CN([C@@H](C)CO)C(=O)c2cc(NC(=O)c3ccncc3)ccc2O[C@@H]1CN(C)Cc1ccc2c(c1)OCO2 | 14
C[C@@H]1CN([C@H](C)CO)C(=O)Cc2cc(NC(=O)Nc3ccc(C(F)(F)F)cc3)ccc2O[C@H]1CN(C)Cc1ccccc1 | 65
Cc1ncc([N+](=O)[O-])n1CC(=O)Nc1ccc(F)cc1 | 21
C[C@@H]1CN([C@@H](C)CO)C(=O)c2cc(NC(=O)Cc3ccccc3)ccc2O[C@@H]1CN(C)C(=O)Nc1cccc2ccccc12 | 64
C[C@@H]1CN([C@H](C)CO)C(=O)c2cccc(NC(=O)C3CCCCC3)c2O[C@H]1CN(C)Cc1ccc(C(F)(F)F)cc1 | 104*

Other results.
SMILES	NOMO-1 viab
CC(C)NC(=O)Nc1cccc2c1O[C@H](CN(C)Cc1ccc(Cl)c(Cl)c1)[C@@H](C)CN([C@@H](C)CO)C2=O	54
C[C@@H]1CCCCO[C@@H](CN(C)C(=O)Nc2ccc3c(c2)OCO3)[C@@H](C)CN([C@H](C)CO)C(=O)c2cc(N(C)C)ccc2O1	17
C[C@H](CO)N1C[C@H](C)[C@H](CN(C)S(=O)(=O)c2cn(C)cn2)Oc2ccc(NS(=O)(=O)c3cccs3)cc2CC1=O	25
CCc1c(C)n([O-])c2c([n+]1=O)CCCCC2	4
C=C1[C@@H]2CC[C@H]3[C@]4(C)C[C@H](O)C[C@@H](C(=O)OC)[C@H]4CC[C@]3(C2)[C@H]1O	10
Cc1ccc(S(=O)(=O)Nc2ccc3c(c2)C(=O)N([C@H](C)CO)C[C@H](C)[C@H](CN(C)Cc2ccc4c(c2)OCO4)O3)cc1	28
COc1cc(-c2nc3ccccc3s2)ccc1OCC(=O)Nc1ccc(C)cc1	38
C[C@H](CO)N1C[C@H](C)[C@@H](CN(C)S(=O)(=O)c2ccccc2)Oc2c(NS(=O)(=O)c3cccs3)cccc2C1=O	35
CC(C)NC(=O)Nc1cccc2c1O[C@H](CN(C)C(=O)Nc1ccc(F)cc1)[C@@H](C)CN([C@@H](C)CO)C2=O	-25
O=C(OCc1ccccc1O[C@@H]1O[C@H](CO)[C@@H](O)[C@H](O)[C@H]1O)c1c(O)cccc1O[C@@H]1O[C@H](CO)[C@@H](O)[C@H](O)[C@H]1O	10
COc1ccc(S(=O)(=O)Nc2ccc3c(c2)CC(=O)N([C@H](C)CO)C[C@H](C)[C@H](CN(C)S(=O)(=O)c2ccc(Cl)cc2)O3)cc1	23
Nc1nc(Cl)nc2c1ncn2C1OC(CO)[C@H](O)[C@H]1F (stereo partly specified)	97*
CNC[C@@H]1Oc2c(NC(=O)Nc3ccc(OC)cc3)cccc2C(=O)N([C@H](C)CO)C[C@H]1C	1
O=C(CS(=O)(=O)Cc1ccccc1)Nc1ncccn1	6
O=[N+]([O-])c1ccc(OCCCSc2ncccn2)cc1	9
C[C@H]1CN([C@@H](C)CO)C(=O)Cc2cc(NC(=O)Nc3cccc4ccccc34)ccc2O[C@H]1CN(C)Cc1ccc(-c2ccccc2)cc1	?
Cc1noc(C)c1S(=O)(=O)Nc1ccc2c(c1)C(=O)N([C@@H](C)CO)C[C@@H](C)[C@H](CN(C)S(=O)(=O)c1cn(C)cn1)O2	-3
O=C(C1Sc2nnc(-c3ccccc3)n2NC1c1ccccc1)N1CCCC1 (stereo unspecified)	5
COc1ccc(OC)c(NC(=O)CNC(=O)c2ccccc2F)c1	9
COc1ccc(S(=O)(=O)N(C)C[C@@H]2Oc3ccc(NS(=O)(=O)c4ccc(Cl)cc4)cc3CC(=O)N([C@@H](C)CO)C[C@@H]2C)cc1	20
C[C@@H]1CN([C@@H](C)CO)C(=O)c2cccc(NC(=O)c3cnccn3)c2O[C@@H]1CN(C)Cc1ccc(-c2ccccc2)cc1	65
C[C@@H]1CN([C@H](C)CO)C(=O)c2cc(NC(=O)CCCN(C)C)ccc2O[C@@H]1CN(C)Cc1ccc(Oc2ccccc2)cc1	17
O=C(CSc1nc2ccc(NC(=O)c3ccccc3)cc2s1)Nc1ccccc1C(F)(F)F	50
Cc1ccc(-c2nc3ccccc3o2)cc1NC(=O)COc1ccccc1[N+](=O)[O-]	-1
C[C@H]1CN([C@@H](C)CO)C(=O)Cc2cc(N(C)C)ccc2O[C@H]1CN(C)S(=O)(=O)c1cccs1	-3

(next part)
SMILES	NOMO-1 viab
C[C@H](CO)N1C[C@H](C)[C@@H](CN(C)C(=O)Nc2ccccc2)Oc2ccc(NC(=O)Cc3cn(C)c4ccccc34)cc2C1=O	-9
C[C@@H]1CN([C@@H](C)CO)C(=O)c2cc(NC(=O)CCCN(C)C)ccc2O[C@@H]1CN(C)Cc1ccc(-c2ccccc2)cc1	-9
C[C@H](CO)N1C[C@H](C)[C@H](CN(C)Cc2ccc(Cl)c(Cl)c2)Oc2ccc(NC(=O)Nc3ccccc3)cc2CC1=O	116*
C[C@H](CO)N1C[C@H](C)[C@@H](CN(C)S(=O)(=O)c2cccs2)Oc2ccc(NS(=O)(=O)c3ccc(Cl)cc3)cc2C1=O	12
C[C@H](CO)N1C[C@H](C)[C@@H](CN(C)C(=O)Nc2cccc3ccccc23)Oc2ccc(NC(=O)Nc3ccc(F)cc3)cc2C1=O	0
C[C@@H]1CCCCO[C@@H](CN(C)C(=O)Nc2ccc3c(c2)OCO3)[C@@H](C)CN([C@H](C)CO)C(=O)c2cc(NC(=O)CCCCCC(=O)Nc3ccccc3N)ccc2O1	14
CNC[C@@H]1Oc2c(N)cccc2C(=O)N([C@H](C)CO)C[C@@H]1C	17
COc1ccc(S(=O)(=O)Nc2ccc3c(c2)CC(=O)N([C@@H](C)CO)C[C@@H](C)[C@@H](CN(C)C(=O)NC2CCCCC2)O3)cc1	-11
C[C@@H]1CCCCO[C@@H](CN(C)C(=O)CCCN(C)C)[C@@H](C)CN([C@H](C)CO)C(=O)c2cc(NC(=O)C3CCCCC3)ccc2O1	-18
CCc1nc(SCC(=O)Nc2ccc(C(=O)OC)cc2)n[nH]1	40
C[C@H]1CN([C@@H](C)CO)C(=O)Cc2cc(NS(=O)(=O)c3ccc(Cl)cc3)ccc2O[C@H]1CN(C)C(=O)NC1CCCCC1	18
Cc1ccc(C)c(OCC(=O)Nc2cccc(-c3nc4ccccc4o3)c2)c1	11
